High-throughput results: PubChem, National Center for Advancing Translational Sciences (NCATS)
LASV entry inh – qHTS for Inhibitors of binding or entry into cells for Lassa Virus; Lassa virus pseudotype entry inhibition, cell reporter; control for the full effect not named in the record; Potency, µM (doses to about 37.9 µM), inactives show at the highest dose activity change, negative = inhibition, most hits filed as inhibitors; 1.2% of 300,000 active; active means well fitted inhibition curve with a large enough effect; inconclusive means small, poorly fitted or top-dose-only effect, or effect the other way; inactive means flat fitted curve, though single readings scatter; tested in HEK293 cells; also: % is scaled to controls: 0 for no effect and ±100 for the full control effect; nearly all actives have a fitted effect of over 50% in size; luciferase read-out
RE007 growth inh – qHTS Assay for Inhibitors of the HIV-1 protein Vpr; S. pombe RE007 Vpr strain, BacTiter-Glo ATP luminescence, 24 h; control for the full effect not named in the record; AID 651644, 2012; 0.21% of 360,000 active; Potency, µM (series often up to 92.2 µM), inactives show at the highest dose activity change, negative = less growth; active = well fitted falling curve with a large enough effect; inconclusive = small, poorly fitted or top-dose-only effect; inactive = no such curve, though single readings can be large or run the other way;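 also: % is scaled to controls: 0 for no effect and ±100 for the full control effect; nearly all actives have a fitted effect of over 50% in size; the assay follows cell death caused by Vpr and the record does not say whether a fall means rescue or toxicity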
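Fission yeast RE007 carrying one integrated HIV-1 vpr copy, seeded at OD 0.01 in PMG+AL medium with 23 nL pinned compound. Grown 24 h at 30 degrees; viability read by BacTiter-Glo luminescence after 5 min.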
Cruzain noTriton – qHTS Assay for Promiscuous and Specific Inhibitors of Cruzain (without detergent); Cruzipain (Trypanosoma cruzi), P25779; purified cruzain, Z-FR-AMC fluorescence, no detergent; Potency, µM, for the others: max response, negative = inhibition, most hits filed as inhibitors; 2.3% of 200,000 active; AID 1476, 2009; active = well fitted curve in the direction sought with a large enough effect; inconclusive = small, poorly fitted or top-dose-only effect, or another doubt; inactive = no such curve, though single readings can be large; an effect the other way counts as inactive or inconclusive;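 also: plate controls were enzyme without inhibitor for no effect and buffer without enzyme for full effect; nearly all actives have a fitted effect of over 40% in size; top concentration of the series not given in the record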
Target sequence (P25779 123-467 limits assumed): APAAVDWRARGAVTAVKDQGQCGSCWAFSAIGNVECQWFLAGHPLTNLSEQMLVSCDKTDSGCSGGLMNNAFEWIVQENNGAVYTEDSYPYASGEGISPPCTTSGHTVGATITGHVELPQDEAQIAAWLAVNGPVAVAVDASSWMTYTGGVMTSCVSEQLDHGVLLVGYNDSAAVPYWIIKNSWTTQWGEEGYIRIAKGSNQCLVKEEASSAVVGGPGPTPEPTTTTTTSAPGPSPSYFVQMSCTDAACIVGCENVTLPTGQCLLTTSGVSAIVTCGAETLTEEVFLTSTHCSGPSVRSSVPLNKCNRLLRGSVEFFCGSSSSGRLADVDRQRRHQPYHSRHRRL
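Purified cruzain at 1.5 nM, pre-incubated 15 min with compound at room temperature in 100 mM sodium acetate pH 5.5, 5 mM DTT, 0.00005% Triton X-100. Reaction started with 2 uM Z-FR-AMC; AMC fluorescence increase over 60 s gives rate.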
MARV entry inh – qHTS for inhibitors of binding or entry into cells for Marburg Virus | Marburg virus pseudotyped entry inhibition, cell reporter; control for the full effect not named in the record; about a third of the inactives were read at about 46 µM | Potency, µM (doses to about 37.8 µM), without a hit: top-dose activity change, negative = inhibition, actives largely listed as inhibitors | 1.8% of 300,000 active; active = well fitted inhibition curve with a large enough effect; inconclusive = small, poorly fitted or top-dose-only effect, or effect the other way; inactive = flat fitted curve, though single readings scatter; tested in HEK293 cells; about a fifth of its hits are not listed in these tables; also: % is scaled to controls: 0 for no effect and ±100 for the full control effect; luciferase read-out
2A StopGo – High Throughput Screening for Foot and Mouth Disease Virus Antivirals; human cells with a luciferase reporter of 2A StopGo recoding; control for the full effect not named in the record; Potency, µM (series often up to 57.9 µM), for inactives: at the top dose signal change, negative = less light; 1.2% of 410,000 active; AID 1159524, 2015; active = well fitted falling curve with a large enough effect; inconclusive = small, poorly fitted or top-dose-only effect; inactive = no such curve, though single readings can be large or run the other way; tested in HEK293T cells; also: % is scaled to controls: 0 for no effect and ±100 for the full control effect; nearly all actives have a fitted effect of over 45% in size; luciferase light after 4 h
SARS PLP yeast – qHTS of Yeast-based Assay for SARS-CoV PLP. S. cerevisiae expressing SARS-CoV PLpro, growth rescue; control for the full effect not named in the record. AID 485353, 2010. Potency, µM (series often up to 32.9 µM), inactives show at the top dose activity, positive = growth rescue. 0.19% of 330,000 active; also: 0% is about no effect; nearly all actives have a fitted effect of over 55% in size; growth read by luminescence after 48 h
NS1 inh – qHTS Assay for Inhibitors of Influenza NS1 Protein Function; S. cerevisiae slowed by influenza A NS1, growth recovery by OD600; 0.4% of 270,000 active; AID 2326, 2010; Potency, µM (series often up to 46.1 µM), for inactives: at the top dose activity, positive = more growth; also: actives are rising curves; nearly all actives have a fitted effect of over 50% in size
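OD600 was taken as the measure of yeast growth restored by compound in an NS1-expressing S. cerevisiae strain. Cells had been washed out of glucose medium and diluted 1:100 into galactose -URA medium, pH 6.0.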
Cruzain Triton – qHTS Assay for Promiscuous and Specific Inhibitors of Cruzain (with detergent). AID 1478, 2009. 0.43% of 200,000 active. Cruzipain (Trypanosoma cruzi), P25779. purified cruzain, Z-FR-AMC fluorescence, 0.01% Triton. Potency, µM, without a hit: max response, negative = inhibition, actives largely listed as inhibitors; active = well fitted curve in the direction sought with a large enough effect; inconclusive = small, poorly fitted or top-dose-only effect, or another doubt; inactive = no such curve, though single readings can be large; an effect the other way counts as inactive or inconclusive;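 also: plate controls were neutral wells for no effect and buffer without enzyme for full effect; nearly all actives have a fitted effect of over 40% in size; top concentration of the series not given in the record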
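Enzyme 1.5 nM, Z-FR-AMC 2 uM, NaOAc 100 mM pH 5.5, DTT 5 mM, Triton X-100 0.01%; 15 min RT compound preincubation; kinetic ex360/em450, 60 s delta.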
Numbers without * were called inactive; ? = inconclusive; . = no result given; & = joins results of further samples; [ ] = another dose, or the depositor's remark. Unless noted, calls follow the shape of the dose curve; as a rule, active means well fitted rising curve with a large enough effect; inconclusive means small, poorly fitted or top-dose-only effect; inactive means no such curve, though single readings can be large or run the other way. Potency is read from the fitted curve at half-maximal effect.

SMILES | LASV entry inh | RE007 growth inh | Cruzain noTriton | MARV entry inh | 2A StopGo | SARS PLP yeast | NS1 inh | Cruzain Triton
COc1ccccc1CNC(=O)C1CCN(S(=O)(=O)c2ccc3c(c2)OCCO3)CC1 | 0.1% | 15.2% | . | 1.9%[46.1 µM] | 6.6% | 0.3% | -4.0% | .
COc1cc(OC)cc(C(=O)N2CCC(C(=O)Nc3ccc4c(c3)OCCO4)CC2)c1 | ? | -0.2% | -4.4% | 4.2% | -11.6% | 7.9% | -3.6% | -2.3%
CCCN(C(=O)CSc1nc2c(cnn2-c2ccccc2)c(=O)[nH]1)C1CCS(=O)(=O)C1 (stereo not given) | -0.4% | 5.3% | 3.3% | -3.3% | 3.3% | 13.9% | 10.7% | -3.2%
O=C(CCCN=C1NS(=O)(=O)c2ccccc21)OCC(=O)c1ccc(F)cc1 | -29.4% | -7.6% | . | -2.8% | 10.2% | 3.0% | . | .
COc1ccc(/C=C/c2n[nH]c(=O)c(C#N)c2C)cc1 | ? | 0.6% | . | ? | -21.8% | 2.2% | -2.1% | .
Oc1ccc(/C=N/n2c(-c3ccccc3)n[nH]c2=S)cc1 | ? | 21.1% | . | -1.6%[46.1 µM] | -4.5% | 1.2% | -0.5% | .
CC(=O)Nc1cc(NC(C)=O)cc(C(=O)OCC(=O)N2CC(C)OC(C)C2)c1 (stereo not given) | 9.3% | -4.3% | -0.9% | 7.4% | -5.6% | 2.4% | 0.5% | 6.4%
CCOC(=O)CNC(=O)CSc1ncnc2c1cnn2-c1ccccc1 | ? | 4.5% | -0.6% | -21.0% | ? | 1.7% | 9.4% | -3.0%
Oc1[nH]c2ccccc2c1C=Nc1ccc2c(c1)OCCO2 | ? | -4.1% | -4.2% | ? | -41.1% | -12.4% | -12.8% | -8.4%
COc1ccccc1N1CCN(C(=O)c2cc(-c3ccc(Cl)c(Cl)c3)on2)CC1 | -0.7% | 16.2% | 25.1µM* | ? | -9.6% | 5.4% | -4.3% | 1.2%
CN(c1ccccc1)S(=O)(=O)c1cccc(C(=O)OCC(=O)NCc2ccccc2)c1 | 0.4%[46.1 µM] | 1.3% | . | ? | -6.2% | -1.9% | . | .
CC1CCN(c2ccc(-c3cccs3)nn2)CC1 | . | ? | . | . | 7.94µM* | -3.7% | -39.9% | .
COCCC(=O)N1CCC(Oc2ccc(C(=O)NCCn3cccn3)cc2)CC1 | 1.7% | 4.3% | . | 23.0% | -18.6% | -1.6% | -1.1% | .
O=C(CCn1c(=S)[nH]c2ccccc2c1=O)NCCCN1CCOCC1 | 0.1% | 4.9% | -0.9% | 13.7% | 23.1% | 4.1% | -2.2% | -1.0%
CN(C(=O)C=Cc1ccccc1)c1ccccc1 | 2.8%[46.1 µM] | -20.9% | . | 3.9%[46.1 µM] | 35.9%[activator] | . | . | .
O=C(NNC(=S)NCc1ccccc1)c1cccnc1 | . | 4.7% | . | . | 6.6% | -2.4% | 10.2% | .
COc1ccc(OCCCC(=O)NCCc2ccc(OC)c(OC)c2)cc1 | -2.9% | 4.2% | 3.2% | ? | -24.7% | 19.9% | 2.5% | -4.6%
CCOc1c2ccc(C(=O)NCc3ccccc3OC)cc2nn1CC | . | 11.9% | 1.8% | . | -0.3% | -1.2% | -10.3% | 1.2%
C/C=C/c1ccc(OCC(=O)N2CCc3cc(OC)c(OC)cc3C2)c(OC)c1 | -12.0% | -6.5% | . | 3.4%[46.1 µM] | 27.7% | -8.4% | 7.8% | .
CC(=O)Nc1ccc(S(=O)(=O)N2CCN(c3cc(C(F)(F)F)ccn3)CC2)cc1 | ? | -2.4% | . | -28.2%[46.1 µM] | ? | 0.0% | 2.5% | .
O=C(O)c1cccc(N2C(=O)C3CC=CCC3C2=O)c1 (stereo not given) | 13.1% | 11.8% | -2.8% | 7.5% | . | 9.0% | 1.1% | 2.2%
CC1(C)CC(=O)c2c(oc3ccc(NS(=O)(=O)c4ccc(C(=O)O)cc4)cc23)C1 | 26.8%[46.1 µM] | 16.4% | . | ? | 2.6% | 0.7% | . | .
COc1ccc(CNC(=O)C(OC(=O)c2ccco2)c2ccccc2)cc1 (stereo not given) | 2.3% | -19.5% | . | 3.3%[46.1 µM] | 0.5% | 15.6% | -4.9% | .
Cc1ccc(Cl)cc1N1CCN(C(=O)C(=O)N2CCCCC2)CC1 | -1.1% | 0.0% | . | -1.7%[46.1 µM] | -27.0% | 0.1% | -0.8% | .
COc1ccc(NC(=O)CSc2nc(-c3cccs3)cc(C(F)(F)F)n2)cc1OC | ? | . | -5.2% | . | ? | . | . | -2.1%
Next results
SMILES | LASV entry inh | RE007 growth inh | Cruzain noTriton | MARV entry inh | 2A StopGo | SARS PLP yeast | NS1 inh | Cruzain Triton
CCCS(=O)(=O)N1CCC(C(=O)NCCN2CCCC2)CC1 | 0.3% | 6.7% | 4.7% | 14.7% | -6.0% | 1.4% | -4.1% | 3.3%
N=C1SC(CC(=O)Nc2ccccc2[N+](=O)[O-])C(=O)N1c1ccccc1 (stereo not given) | . | 10.3% | . | . | -10.7% | 1.0% | 3.9% | .
Oc1ccccc1-c1nc(N2CCCC2)c2ccccc2n1 | 9.6% | -6.0% | 11.9% | 14.6% | 4.4% | 4.3% | -2.4% | -6.8%
CCCN(CC(=O)Nc1ccccc1C)C(=O)Cc1coc2cc(C)ccc12 | ? | -2.2% | . | 0.6% | 11.1% | 25.5% | -21.2% | .
CCOc1ccc2c(c1)c(=O)c(C(=O)c1ccc3c(c1)OCO3)cn2Cc1ccc(F)cc1 | 17.6%[46.1 µM] | . | -6.7% | 10.7%[46.1 µM] | -15.7% | . | . | -1.0%
Cc1cc(C(=O)CSc2nnc(-c3cccnc3)n2-c2ccccc2F)c(C)n1C | -9.9% | -35.7% | 2.0% | -27.7%&-27.7% | -27.4% | 2.1% | ? | 3.1%
CCC(CC)c1nnc(NC(=O)CC(C)c2ccccc2)s1 (stereo not given) | -2.4%[46.1 µM] | 9.8% | . | ? | -18.0% | 4.6% | 11.7% | .
CCOc1ccc(CNC(=S)N/N=C\c2ccc([N+](=O)[O-])cc2)cc1 | ? | 9.5% | 20µM* | 14.2% | 30.2%[activator] | -7.1% | 4.5% | -4.0%
Cc1cc(C)cc(NC(=S)NCc2ccc3c(c2)OCO3)c1 | -0.3% | 2.6% | . | 25.5% | 33.1%[activator] | . | . | .
O=C(NC1CCCC1)C(c1ccncc1)N(C(=O)c1ccco1)c1ccc(F)c(Cl)c1 (stereo not given) | -0.7% | 8.2% | . | -7.9%[46.1 µM] | -18.7% | -0.5% | -14.1% | .
CCCCCc1nc2c(=O)[nH]c3ccccc3c2o1 | 29.2% | 31.9% | 1.8% | 2.4% | 63.9%[activator] | 3.8% | 1.5% | -2.8%
Cc1ccc(C(=O)NC(=C(Cl)Cl)S(=O)(=O)c2ccccc2)cc1 | ? | 11.5% | 3.7% | ? | ? | -24.8% | -2.5% | -3.7%
COC(=O)CC1C(=O)NCCN1C(=O)CSc1nc2cc(Cl)ccc2o1 (stereo not given) | 0.9% | 6.6% | . | -22.9%[14.2 µM] | -14.4% | 0.7% | -0.2% | .
CCN(CC)S(=O)(=O)c1ccc2nc(NC(=O)c3cccs3)sc2c1 | 18.3% | -25.8% | -11.6% | 9.4%[46.1 µM] | 47.6%[activator] | -2.6% | 3.3% | -6.7%
Cc1ccc(C)c(CNC(=O)C2CCCCN2S(=O)(=O)c2ccc(F)cc2)c1 (stereo not given) | ? | . | -2.4% | . | -23.4% | . | . | -4.9%
CC1=[N+](CC(=O)c2ccccc2)CCn2cccc21 | 14.4%[46.1 µM] | -5.8% | . | ? | 33.5%[activator] | 0.5% | 7.3% | .
CC(NS(=O)(=O)c1ccc(CCC(=O)NCc2cccnc2)cc1)c1ccccc1 (stereo not given) | -0.3% | -0.6% | 4.0% | -9.5% | 10.1% | 13.8% | 1.0% | -1.1%
O=C(NCc1cccs1)C1CCCN(c2ncccn2)C1 (stereo not given) | -4.2% | -7.6% | -13.2% | ? | 3.6% | -4.6% | -3.3% | -3.5%
CCc1ccc(Nc2nnc(SCc3cc(=O)n4ccsc4n3)s2)cc1 | 2.9% | -17.1% | 3.3% | -1.8% | ? | -6.1% | -5.7% | -3.0%
Cc1cc(-c2ccc(C)c(S(=O)(=O)NCCCN3CCN(c4ccccc4)CC3)c2)on1 | . | 0.6% | . | . | ? | -2.7% | -5.7% | .
Cc1ccc(/C=C/C(=O)CCC(=O)O)cc1 | 5.1%[46.1 µM] | -8.2% | . | 26.0%[46.1 µM] | 17.5% | -2.3% | 0.6% | .
Cc1ccc(Oc2cc(C#N)c(C#N)cc2-n2nnc3ccccc32)cc1C | 8.4% | 0.6% | 9.4% | 1.4%&1.4% | -18.4% | 5.6% | 6.1% | -0.3%
CCc1ccc(C2=C(C)C(N3CCC(C(=O)Nc4cccc(OC)c4)CC3)=NS2(=O)=O)cc1 | -3.9%[46.1 µM] | . | ? | . | -8.4% | . | . | 8.3%
O=C(c1ccc(Cl)c(S(=O)(=O)N2CCc3ccccc32)c1)N1CCN(c2ccccc2O)CC1 | ? | -12.5% | . | ? | ? | -27.5% | . | .
COc1ccc(N2CCCn3c2nc2c3c(=O)n(CCCc3ccccc3)c(=O)n2C)cc1 | . | . | ? | . | . | 3.4% | -50.9% | -5.0%
O=C(O)c1ccc(-c2nc3ccccc3s2)o1 | . | -4.3% | . | . | ? | -1.0% | 1.2% | .
O=C(COc1ccccc1)Nc1ccc(NC(=O)c2ccco2)cc1 | -0.8%[46.1 µM] | 8.9% | . | 3.0%[46.1 µM] | 0.0% | 0.5% | . | .
CCOC(=O)c1ccc(S(=O)(=O)N2CCC(C(=O)N3CCN(c4ccccc4OC)CC3)CC2)cc1 | -12.7% | 3.1% | . | -19.3% | -28.3% | . | . | .
CCSC1=C(C#N)C(c2ccccc2Cl)C(C(=O)c2cccs2)C(O)(C(F)(F)F)N1 (stereo not given) | -8.3% | -2.0% | 2.3% | 2.3% | ? | -10.8% | -8.4% | -9.5%
CNC(=O)/C(C#N)=C/c1c(N(Cc2ccccc2)Cc2ccccc2)nc2ccccn2c1=O | 11.2µM* | 36.7% | 20.8% | 15.8µM* | -22.9% | 7.8% | -11.2% | -9.4%
